# Assay outcomes (PubChem)
# Rango release inh: prevents RanGTP from dissociating the Rango-importin beta complex; O95149+P62826; Biochemical FRET Rango-importin beta, RanGTP-induced dissociation; Potency, µM (series often up to 46.1 µM), for the others: at the highest dose activity change, negative = inhibition; 340,000 tested, 0.071% active; AID 540253; active means falling FRET ratio curve, often poorly fitted, with flat reads before Ran was added; inconclusive means other falling curves, or compound fluorescence or quenching; inactive means flat or rising ratio curve;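 also: potency is read from the fitted curve at half-maximal effect; % of control where 0% means no effect; nearly all actives have a fitted effect of over 45% in size; -100% = wells without RanGTP and RCC1; the record marks most hits as doubtful in a second field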
#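 Rango (0.1 uM)–importin beta (0.25 uM) complex; RanGTP-RCC1 trigger; 45 min RT; CFP/YFP FRET read.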
# miR-21 reporter: raises the signal of a miR-21 reporter | HeLa miR-21 FLuc reporter, luciferase, 48 h | Potency, µM (doses to about 38.3 µM), for the others: top-dose reporter change, positive = more light | 340,000 tested, under 10 active | AID 2288; active = well fitted rising curve with a large enough effect; inconclusive = small, poorly fitted or top-dose-only effect; inactive = no such curve, though single readings can be large or run the other way;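 also: % of control where 0% means no effect; miR-21 action dims this reporter so a rising signal means less miR-21 action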
#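 HeLa cells endogenously expressing miR-21, stably carrying CMV-driven firefly luciferase with a downstream miR-21 binding site, 2000 cells/well. Titrations up to approximately 40 uM, 48 hours; luciferase luminescence read.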
# GLA inh pH 4.5: blocks human alpha-galactosidase A at pH 4.5 | P06280 | 230,000 tested, under 10 active | activity change, negative = inhibition, % at 105 µM | purified enzyme, 4-MU-alpha-Gal fluorescence, pH 4.5; inconclusive = small, poorly fitted or top-dose-only inhibition, or a rising curve; inactive = flat fitted curve, though single readings scatter; no compound was filed as active;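 also: 0% = full activity with enzyme and -100% = basal without enzyme; dose as in the result columns while the protocol names 77 µM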
# Rango complex inh: Rango-importin beta binding inhibition; Potency, µM (doses to about 92.2 µM), inactives show top-dose inhibition of complex formation; Q14974; Rango CFP/YFP FRET sensor + importin beta, 45 min; 340,000 tested, 0.031% active; active = rising FRET ratio curve, often small or poorly fitted; inconclusive = mostly compound fluorescence or quenching in the first reads; inactive = flat curves in all reads;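 also: potency is read from the fitted curve at half-maximal effect; 0% = DMSO wells and 100% = buffer wells lacking importin beta; nearly all actives have a fitted effect of over 15% in size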
# Target sequence (Q14974 whole entry, looked up): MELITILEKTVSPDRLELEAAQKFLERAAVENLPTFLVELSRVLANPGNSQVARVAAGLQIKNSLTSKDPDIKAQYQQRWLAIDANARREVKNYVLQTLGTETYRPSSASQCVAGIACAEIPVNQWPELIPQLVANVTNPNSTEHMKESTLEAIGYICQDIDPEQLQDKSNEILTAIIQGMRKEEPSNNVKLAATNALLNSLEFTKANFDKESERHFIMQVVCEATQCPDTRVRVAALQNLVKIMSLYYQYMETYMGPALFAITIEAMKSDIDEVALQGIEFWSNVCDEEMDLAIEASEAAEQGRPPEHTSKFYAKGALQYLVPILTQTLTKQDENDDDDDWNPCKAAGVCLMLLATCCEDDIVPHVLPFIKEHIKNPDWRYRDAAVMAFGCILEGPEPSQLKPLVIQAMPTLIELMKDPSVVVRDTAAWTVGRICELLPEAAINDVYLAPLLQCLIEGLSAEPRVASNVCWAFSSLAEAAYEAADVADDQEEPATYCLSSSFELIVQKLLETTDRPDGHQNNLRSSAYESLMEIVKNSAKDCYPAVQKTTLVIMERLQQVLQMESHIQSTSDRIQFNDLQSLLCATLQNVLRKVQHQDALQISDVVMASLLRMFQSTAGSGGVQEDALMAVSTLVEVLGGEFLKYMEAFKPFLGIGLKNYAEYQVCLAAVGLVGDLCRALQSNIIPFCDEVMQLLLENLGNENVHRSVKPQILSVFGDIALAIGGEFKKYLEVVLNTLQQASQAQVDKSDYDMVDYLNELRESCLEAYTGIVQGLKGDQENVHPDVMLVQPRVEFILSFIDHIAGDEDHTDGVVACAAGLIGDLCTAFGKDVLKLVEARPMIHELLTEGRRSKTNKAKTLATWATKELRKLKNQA
#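 FRET biosensor (snurportin 1 IBB flanked by EYFP and cerulean), 50 nM, with compound 5 min, then 0.125 microM importin beta in PBS, 1 mM DTT, 0.02% Tween-20, 0.1% BSA. CFP/YFP ratio read after 45 min at room temperature; pre-read flags interference.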
# Active calls of the source: *; ? = inconclusive; · = no result given; & = joins results of further samples; [ ] = remark or other dose. These rows are one share of the data; count on the stated rates, not on these rows.
Rango release inh	miR-21 reporter	GLA inh pH 4.5	Rango complex inh	canonical_smiles
-9%	4%	·	?	Cc1ccc2c(c1)c1c3n2CCN(CC(O)CNC(C)C)C3CCC1 (stereo not given)
-4%	·	·	-2.9%	COc1ccc(CC(=O)OCC(=O)NCc2ccc(C)cc2)cc1OC
4%	-1%	-5	3.5%	COC(=O)c1ccsc1NC(=O)CN1CCN(c2ccc(F)cc2)CC1
17%	-1%	·	3.5%	COc1ccc(Br)cc1C(=O)N/N=C/c1cccnc1
9%	1%	·	2.7%	CC1(c2ccc(Cl)cc2)NC(=O)N(CC(=O)Nc2ccc(F)cc2)C1=O (stereo not given)
?	-2%	5	-2.0%	CCCc1cc(=O)oc2cc(OCC(=O)NCc3cccs3)ccc12
3%	1%	-7	1.0%	O=C(Nc1c(C(=O)N2CCOCC2)cnn1-c1ccccc1Cl)c1ccco1
9%	-7%	·	-0.7%	CCN1CCN(CC(=O)c2ccc(C)cc2)CC1
-6%	-5%	-6	4.4%	COc1cccc2cc(C(=O)N3CCC(C)CC3)c(=O)oc12
1%	1%	-11	0.7%	COC(=O)c1ccccc1N(C)C(=O)C12CCC(C)(C(=O)O1)C2(C)C (stereo not given)

# Later entries
Rango release inh	miR-21 reporter	GLA inh pH 4.5	Rango complex inh	canonical_smiles
-11%	1%	-7	5.0%	O=C(c1ccc(S(=O)(=O)N2CCCC2)cc1)N1CCN(Cc2ccc3c(c2)OCO3)CC1
0%	·	·	-0.9%	CN(C(=O)COC(=O)Cc1c[nH]c2ccccc12)c1c(N)n(Cc2ccccc2)c(=O)[nH]c1=O
22%	·	·	-0.4%	O=C(O)c1cc([N+](=O)[O-])cc2ccccc12
-15%	·	·	0.0%	CN(C)S(=O)(=O)c1ccc(Cl)c(NC(=O)CNC2(C)CCS(=O)(=O)C2)c1 (stereo not given)
1%	·	·	-0.7%	CCCC(C)CO (stereo not given)
0%	·	·	-2.4%	O=C(C[C@@H]1C/C=C\C[C@H](Cc2ccc(F)cc2)C(=O)OC[C@H]2CCCN2C1=O)NCCO
2%	0%	6	2.9%	COCCNC(=O)C1CC(c2cccc([N+](=O)[O-])c2)=NO1 (stereo not given)
-3%	0%	3	-0.1%	O=C(CCCn1c(=S)[nH]c2cc3c(cc2c1=O)OCO3)N1CCN(c2ccc(Cl)cc2)CC1
4%	-5%	·	0.1%	O=Cc1ccccc1OCCCOc1cccc2cccnc12
-4%	3%	5[21.1 µM]	2.6%	COCCNC(=O)CSCc1cc(C)cc(C)c1

# Exported with two lines to a compound: three of the compounds above
# Order of values – Rango release inh, miR-21 reporter, GLA inh pH 4.5, Rango complex inh
- COC(=O)c1ccsc1NC(=O)CN1CCN(c2ccc(F)cc2)CC1
    4%, -1%, -5, 3.5%
- COc1ccc(Br)cc1C(=O)N/N=C/c1cccnc1
    17%, -1%, ·, 3.5%
- CC1(c2ccc(Cl)cc2)NC(=O)N(CC(=O)Nc2ccc(F)cc2)C1=O (stereo not given)
    9%, 1%, ·, 2.7%

# Additional structures.
Rango release inh	miR-21 reporter	GLA inh pH 4.5	Rango complex inh	canonical_smiles
-12%	·	·	-0.3%	CC(=O)c1ccccc1NC(=O)COC(=O)CN1C(=O)C2CCCCC2C1=O (stereo not given)
0%	0%	-1	0.7%	COc1ccccc1NC(=S)N1CCn2cccc2C1c1cccnc1 (stereo not given)
-9%	0%	6	1.4%	Cc1cccc(C(=O)NNC(=O)c2ccccc2-n2cccc2)c1
-10%	·	·	0.7%	Cc1ccc(S(=O)(=O)N2[C@@H](c3ccc(Cl)cc3)C(C(=O)O)=CC[C@H]2c2ccc(C(C)C)cc2)cc1
-2%	-6%	1	4.1%	CCNC(=O)C(=O)Nc1ccc(OC)c(Cl)c1
20%	-1%	·	-2.2%	Cc1nc2scc(C)n2c(=O)c1S(=O)(=O)NCc1ccccc1
-2%	-5%	?	7.0%	COC(=O)c1cc(-c2ccccc2)sc1NC(=O)CN1C(=O)c2ccccc2C1=O
-13%	0%	·	?	O=C(N/N=C1/CC2CCC1C2)c1cc2ccccc2cc1O (stereo not given)
-5%	3%	2	-1.2%	Cc1ccc(Oc2ncc(-c3ccc(Cl)cc3)cn2)cc1
9%	11%	·	-0.7%	COc1ccc(NS(=O)(=O)c2ccc(NC(=O)C3CC3)cc2)cc1

# Following part
Rango release inh	miR-21 reporter	GLA inh pH 4.5	Rango complex inh	canonical_smiles
0%	·	·	-0.1%	CN(CC(=O)Nc1c(Cl)cccc1Cl)C(=O)CCC(=O)c1ccccc1
4%	3%&-5%	10	0.7%	Cn1c(SCC(=O)Nc2ccc(F)cc2)nc2c([nH]c3ccccc32)c1=O
4%	0%&-53%	·	-0.4%	Cc1cccc(NS(=O)(=O)c2nnc(NC(=O)C3CCCCC3)s2)c1
-7%	-11%	-6	-0.6%	COc1ccc(/C=N/Nc2ncc(-c3ccccc3)cn2)c(OC)c1
1%	-35%	-8	-3.3%	CCc1ccc(N(C(=O)c2snc(C(N)=O)c2N)C(C(=O)NCC2CCCO2)c2cccs2)cc1 (stereo not given)
1%	-3%	10	0.1%	O=C(Cc1ccccc1)Nc1ccc(N2CCOCC2)cc1N1CCOCC1
34%	-38%	9	1.4%	Cc1ccccc1-c1nnc2c3ccccc3c(C)nn12
-4%	4%	-7	-1.9%	Cn1cnc([N+](=O)[O-])c1Sc1nnc(-c2cccnc2)n1C
-19%	8%	-12	-1.5%	O=[N+]([O-])c1ccc(/C=N/Nc2nc(N3CCCC3)nc(N3CCCC3)n2)o1
2%	-1%	·	-3.8%	O=C(C1CC(=O)N(c2ccc(Cl)cc2)C1)N1CCOCC1 (stereo not given)

# (further entries)
Rango release inh	miR-21 reporter	GLA inh pH 4.5	Rango complex inh	canonical_smiles
?	-4%	-3	?	Cc1cc(C)n2c3c(c(C#N)c2n1)CCCC3
13%	-6%	6	0.1%	C=CCNS(=O)(=O)c1nc(C)c(Cl)c(C)c1C#N
15%	-2%	-2	-2.4%	CC(=O)c1nn(-c2cccc(Br)c2)cc1C(=O)c1ccc2ccccc2c1
5%	-3%	2	1.6%	C=CCn1c(=O)c2ccccc2n2c(SCC(=O)Nc3cc(C)on3)nnc12
2%	-15%	5	2.6%	COc1cccc(-c2nc(-c3ccc(NC(=O)c4cccnc4)cc3)no2)c1
24%	-3%	·	?	CC1Oc2ccccc2N(CC(=O)Nc2ccc(F)cc2)C1=O (stereo not given)
-6%	26%	-5	-4.5%	O=C(c1ccccc1)c1cc([N+](=O)[O-])ccc1N1CCOCC1
-3%	5%	?	-1.2%	N#Cc1c(C(F)(F)F)cc(-c2ccccc2)[nH]c1=O
-4%	-49%	-29	5.6%	CCNc1nnc(CSc2nc3ccccc3s2)s1
-1%	-4%	-2	-0.6%	COc1ccc(OC)c(-n2c(SCC(C)=O)nnc2-c2cccc(S(=O)(=O)N(C)C)c2)c1

# Going on with the list.
Rango release inh	miR-21 reporter	GLA inh pH 4.5	Rango complex inh	canonical_smiles
13%	-25%	-4	1.4%	CSc1ccc(/C=N/Nc2nc(C)cc(C)n2)cc1
-6%	1%	5	0.6%	COc1cccc(-n2nnnc2SCC(=O)NCc2ccc3c(c2)OCO3)c1
4%	-2%	11	0.5%	COc1ccc(CNC(=O)c2ccccc2NS(C)(=O)=O)cc1
-1%	13%	-6	5.6%	O=C(Nc1ccccc1Br)c1ccccc1-c1ccccc1
-12%	·	·	5.7%	CC(C)=CCC/C(C)=C/CNC(=O)CC1C[C@H](C(=O)N(C(C)C)C(C)C)[C@@]2(C)c3[nH]c4ccccc4c3CCN2C1=O (stereo not given in full)
2%	1%&-3%	·	-1.4%	CCOc1ccc(CNC(=O)CCC(=O)N2Cc3ccccc3Oc3ncccc32)cc1
-4%	3%	·	1.2%	COCCCN(Cc1cccs1)S(=O)(=O)c1csc(C(N)=O)c1
-10%	·	·	?	CN(C)CCNC(=O)C(=O)NCC1CCCN1S(=O)(=O)c1cccs1 (stereo not given)
-13%	-13%	-26	1.8%	O=C1N=C(N2CCN(Cc3ccccc3)CC2)S/C1=C/c1cccs1
-8%	6%	-18	1.7%	Cc1cc(N)n(-c2ccc(S(=O)(=O)c3ccc(C(C)C)cc3)cc2)n1

# New compounds follow.
Rango release inh	miR-21 reporter	GLA inh pH 4.5	Rango complex inh	canonical_smiles
1%	2%	6	2.1%	Cc1cc(-c2nc(C)c(-c3nnc(SCC(=O)Nc4ccccc4)n3C)s2)no1
-6%	-10%	-3	2.3%	O=C(NC1C2CC3CC(C2)CC1C3)c1ccc(N2CCNCC2)c([N+](=O)[O-])c1 (stereo not given)
-8%	-12%	2	?	Cc1ccc(C(=O)CNc2ccc(C)c(Cl)c2)cc1
0%	2%	6	3.4%	Cc1ccc(C(=O)Nc2ccccc2C(=O)O)cc1S(=O)(=O)NCc1ccccc1
18%	·	·	6.7%	O=C(COC(=O)CN1C(=O)COc2ccccc21)NCc1ccc(F)cc1
?	0%	3	?	CCCc1nn2c(=O)c(C(c3cccc(Cl)c3)c3c(O)nc4sc(CCC)nn4c3=O)c(O)nc2s1
22%	0%	2	-5.1%	CCc1ccc2nc(SCC(=O)Nc3nnc(C)s3)c(C)cc2c1
2%	-41%	·	0.7%	COc1ccc(OCc2cc(C(=O)N3CCC(c4ccccc4)CC3)no2)c(Cl)c1
16%	·	·	-3.9%	CC(C)c1ccccc1NC(=S)NC(=O)C1CCCCC1
4%	-7%	8	0.2%	Cc1ccc2nc(CCc3nc4ccc(C)cc4o3)oc2c1

# (more compounds)
Rango release inh	miR-21 reporter	GLA inh pH 4.5	Rango complex inh	canonical_smiles
0%	1%	-3	-3.6%	COC(=O)CCCCCCCC(=O)Nc1nnc(C(F)(F)F)s1
-8%	-9%	-7	-1.8%	COc1ccc(/C(C)=N/OCC(=O)Nc2nc3ccccc3s2)cc1OC
2%	-44%	3	2.2%	CSc1nc2ccc(NC(=O)c3ccc(F)c(F)c3)cc2s1
-5%	2%	-10	-0.1%	CCOc1ccc(N2C(=O)NC(Cc3c[nH]c4ccccc34)C2=O)cc1 (stereo not given)
?	14%	·	0.0%	COCc1ccc(CN2CCCC(C(=O)Nc3ccc(-c4cccc(OC)c4)cc3)C2)o1 (stereo not given)
8%	·	·	1.5%	Cc1cc(C)cc(OCC(=O)OCC(=O)NC2CCCCCCC2)c1
-14%	-8%	·	-1.3%	O=C(O)/C=C\C(=O)Nc1ccccc1N1CCN(c2ccccc2)CC1
-1%	-19%	5	-1.0%	CCc1ccc(/C=N/n2c(C)cc(C)c(C#N)c2=O)cc1
10%	-2%	0	-3.8%	O=C(O)CSC(=S)N1CCCCC1
-15%	-1%	-13	?	CC1=C(C(=O)OC2CCCCCCC2)C(c2cc3c(cc2Br)OCO3)CC(=O)N1 (stereo not given)

# Exported with each value named: entries from further up.
canonical_smiles: O=[N+]([O-])c1ccc(/C=N/Nc2nc(N3CCCC3)nc(N3CCCC3)n2)o1
  Rango release inh: -19% | miR-21 reporter: 8% | GLA inh pH 4.5: -12 | Rango complex inh: -1.5%
canonical_smiles: Cn1cnc([N+](=O)[O-])c1Sc1nnc(-c2cccnc2)n1C
  Rango release inh: -4% | miR-21 reporter: 4% | GLA inh pH 4.5: -7 | Rango complex inh: -1.9%
canonical_smiles: COC(=O)CCCCCCCC(=O)Nc1nnc(C(F)(F)F)s1
  Rango release inh: 0% | miR-21 reporter: 1% | GLA inh pH 4.5: -3 | Rango complex inh: -3.6%
canonical_smiles: COc1ccc(/C(C)=N/OCC(=O)Nc2nc3ccccc3s2)cc1OC
  Rango release inh: -8% | miR-21 reporter: -9% | GLA inh pH 4.5: -7 | Rango complex inh: -1.8%

# (list continues)
Rango release inh	miR-21 reporter	GLA inh pH 4.5	Rango complex inh	canonical_smiles
-5%	-2%	·	2.5%	O=C(CC1C(=O)NCCN1Cc1c(F)cccc1Cl)NCCCN1CCCC1=O (stereo not given)
-4%	-1%	-8	-1.4%	CCN(CC)CC(=O)Nc1ccc(/C(C)=N/NC2=NCCN2)cc1
0%	-2%	-11	-1.2%	O=C(O)C1C2CCC(C2)C1C(=O)Nc1cc(F)ccc1F (stereo not given)
-17%	-2%	1	-2.1%	COc1ccc(NC(=O)CSc2nnc(Cc3cccn3C)n2-c2ccc(F)cc2)cc1OC
1%	-1%	-3	0.7%	COc1ccc(-n2c(=O)cc(N3CCOCC3)[nH]c2=O)cc1
13%	-2%	·	?	O=C(c1ccc2c(=O)n3c(nc2c1)CCCCC3)N1CCN(c2ccc([N+](=O)[O-])cc2)CC1
